Screens deposited in PubChem by National Center for Advancing Translational Sciences (NCATS).
VACV mCherry inh: vaccinia inhibition (mCherry reporter) | Vaccinia virus mCherry reporter infection, fluorescence; about a quarter of the inactives have no number | Potency, µM (doses to about 36.5 µM), without a hit: top-dose activity change, negative = inhibition, most hits filed as inhibitors | hit rate 0.63% among 310,000 | AID 720579; active = well fitted inhibition curve with a large enough effect; inconclusive = small, poorly fitted or top-dose-only effect; inactive = no such curve, though single readings can be large or run the other way; tested in A549 cells; further: nearly all actives have a fitted effect of over 35% in size; inactives centre near -10
Vaccinia Venus: inhibitors of vaccinia virus (Venus reporter). Vaccinia virus Venus reporter expression, fluorescence. hit rate 0.46% among 330,000. AID 720580. Potency, µM (top dose mostly 36.5 µM), inactives show at the top dose activity change, negative = inhibition, actives largely listed as inhibitors; active means well fitted inhibition curve with a large enough effect; inconclusive means small, poorly fitted or top-dose-only effect; inactive means no such curve, though single readings can be large or run the other way; tested in A549 cells; further: nearly all actives have a fitted effect of over 30% in size; inactives centre near -10
Starred values were filed as active, the others as inactive; i = inactive; ? = inconclusive; . = no result given; [ ] = remark or other dose. On the % scale 0 is the no-effect control and ±100 the full control effect; potency means the concentration at half of the fitted maximal effect.

compound	VACV mCherry inh	Vaccinia Venus
CN1OC[C@@H]2CN(C(=O)c3ccc(-c4ccccc4)cc3)[C@H](c3ccc(-c4cccc(F)c4)cc3)C[C@@H]21	-2%	?
Cc1ccc2cc(CN(CC3CCCO3)C(=S)NCc3ccco3)c(=O)[nH]c2c1 (stereo not given)	-5%	-17%
Cc1cccc(C)c1NC(=O)c1cc(S(=O)(=O)N2CCCc3ccccc32)ccc1F	-24%	-14%
O=C(OCc1nc2ccccc2s1)c1cccc(S(=O)(=O)N2CCOCC2)c1	-9%[1.46 µM]	-20%
CCC(=O)Nc1c(C#N)c2nc3ccccc3nc2n1-c1ccc(C)cc1	-6%	-9%
CC(=O)Nc1ccc(S(=O)(=O)N(CC(=O)O)Cc2ccccc2)cc1	53%[activator][1.46 µM]	-8%
CCc1cc(=O)oc2cc(C)cc(OCC(=O)NCCc3c[nH]c4ccccc34)c12	-1%	-7%
COc1ccc2nc(NC(=O)CCc3ccc(OC)c(OC)c3)sc2c1	-8%	-16%
Cc1nn(-c2ccccc2)c(C)c1C(=O)OCC(=O)NC(=O)NC1CCCCC1	-1%	-8%
Cc1sc2ncnc(Nc3ccccc3)c2c1C	?	?
CCCC(=O)Nc1nc2nc(-c3ccccc3)cc(-c3ccccc3)n2n1	i	-12%
Cc1ccc(NC(=O)N2CCN(C(=O)c3ccco3)CC2)cc1Cl	-16%	-15%
Cc1cc(NC(=O)CSc2nnc(C)n2C)no1	-8%	6%
C[C@@H]1C=CC(=O)O[C@@H]1c1ccc(Cl)cc1	?	3.5µM*
CSCCC(NS(=O)(=O)c1ccc2c(c1)oc(=O)n2C)C(=O)NCc1cccs1 (stereo not given)	i	-14%
Cc1onc(-c2ccccc2Cl)c1C(=O)Oc1cc(F)cc(F)c1	-8%	-11%
COc1ccc(CNC(=O)C(C)n2nc(C)c3c(C)n(-c4ccc(C)cc4)nc3c2=O)cc1 (stereo not given)	-20%	-21%
CCOC(=O)C12C(=O)OCC1C2c1ccccc1 (stereo not given)	i	1%
O=C(N/N=C/c1ccccn1)c1cc(-c2ccc(Br)s2)[nH]n1	-28%	-29%
CCOc1ccc(NC(=O)CSc2nc3cc(C(=O)NCC4CCCO4)ccc3c(=O)n2CC2CCCO2)cc1 (stereo not given)	-3%	-20%

compound	VACV mCherry inh	Vaccinia Venus
CCNc1ccc(C(=O)N/N=C/c2c(C)nn(-c3ccccc3)c2N2CCCC2)cc1[N+](=O)[O-]	-8%	-4%
COc1ccc(NC(=O)CC2C(=O)N(C)C(=S)N2Cc2cccs2)cc1 (stereo not given)	i	-11%
Cc1nn(C)c(Cl)c1CN1CCN(C2CCCC2)C(CCO)C1 (stereo not given)	-15%	-1%
CN(Cc1ccccc1)Cc1nc2c(c(=O)n(C)c(=O)n2C)n1CCc1ccccc1	-11%	-12%
Cc1cc(C)nc(N(C#N)C(C)C(=O)N(C)C)n1 (stereo not given)	i	-14%
C=CCc1c(C)nc2nc(SCC(=O)Nc3ccccc3CC)nn2c1C	-21%	-9%
COc1cccc(NC(=O)c2cc(CN3CCOCC3)on2)c1	-2%	-12%
Cc1cccc(C)c1-n1ncc(C(=O)Nc2ccc3c(c2)OCCO3)c1C1CCN(C(=O)OC(C)(C)C)CC1	0%	-2%
Cc1ccc(C)c(SCC(=O)Nc2oc(C)c3c(C)n[nH]c(=O)c23)c1	-14%	-11%
COc1ccc(-c2csc(C(O)c3ccc(F)cc3)n2)cc1 (stereo not given)	i	-5%
CCCn1c(SCC(=O)N2CCc3ccccc32)nnc1-c1ccco1	i	-6%
O=S(=O)(c1ccc(Br)cc1)c1nc(-c2cccs2)oc1SCc1ccc(F)cc1	-10%	-10%
O=C(NCc1ccc(Cl)cc1)c1cccc(NC(=O)c2ccccc2)c1	?	?
CCOC(=O)c1ccccc1NC(=O)CC1SC(=NC)N(C)C1=O (stereo not given)	.	-3%
O=C(Nc1nc2ccc(S(=O)(=O)N3CCCC3)cc2s1)c1cccc(F)c1	-6%	-24%
C=CCNC(=S)Nc1cc(S(=O)(=O)N2CCOCC2)ccc1-n1cncn1	i	-12%
CCOc1ccc(-n2c(C)cc(/C=N/NC(=O)C(N)=O)c2C)cc1	-10%	-9%
COc1ccc(NC(=O)c2cc3c(=O)[nH]c4ccccc4c3n2C)cc1Cl	-3%	-7%
O=C(Nc1ncccc1O)c1ccc(C(=O)c2ccccc2)cc1	?	-22%
CCOc1cc(N2CCOCC2)c(OCC)cc1NC(=O)CC12CC3CC(CC(C3)C1)C2	?	-21%

compound	VACV mCherry inh	Vaccinia Venus
O=C(Nc1cnccn1)Nc1cccc(Cl)c1Cl	i	-10%
CCOc1ccc(NC(=O)c2sc3nc(C)nc(N4CCOCC4)c3c2C)cc1	-1%	-6%
Cc1[nH]c2ccccc2c1SCC(=O)N1CCOCC1	i	-10%
COc1ccc(CN(CCN)C2CC(C)N(C)CC2C)cc1 (stereo not given)	-11%	-10%
NC(=O)NN=C1C2CCCC1C(c1ccccc1)NC2c1ccccc1 (stereo not given)	-27%	-29%
C1CC(CN2CCOCC2)CN(Cc2nc(CC3CC3)no2)C1 (stereo not given)	-30%	-7%
O=C(Nc1ccncc1)Nc1ccc(Cl)cc1Cl	-8%	-12%
CN(C)c1ccc(N=Nc2ccc(C(=O)O)cc2)cc1	i	-9%
CCOc1nc(NCc2ccco2)nc(Nc2ccccc2F)n1	-4%	-13%
CCOC(=O)C1=C(Nc2ccc(Br)cc2)CC(C)(O)C(C(=O)OCC)C1c1ccccc1 (stereo not given)	-19%	-11%
Cc1cc(C(=O)CSc2n[nH]c(N)n2)c(C)n1-c1cc(F)ccc1F	?	-28%
C[C@H](NC(=O)c1ccccc1)C(=O)OCC(=O)Nc1ccc(Cl)cn1	-3%	-13%
CCN(CC)c1ccc(NC(=O)C2CCN(S(=O)(=O)c3ccc4c(c3)oc(=O)n4C)CC2)c(C)c1	-12%	-4%
O=C(Nc1cccc(O)c1)c1ccc(C(=O)c2ccccc2)o1	i	-10%
O=C(O/N=C\c1ccc(N2CCOCC2)c([N+](=O)[O-])c1)c1ccc(F)cc1	i	-7%
CCN(C(=O)COC(=O)c1cnccn1)c1cccc2ccccc12	i	-3%
c1ccc2c(-c3nc4ncccc4o3)cccc2c1	-12%	-5%
COc1ccc2nc3ccccc3nc2c1NC(=O)c1ccc(Cl)cc1	i	-1%
COc1ccc(-c2nc(SCC(=O)c3ccc(Br)cc3)n[nH]2)cc1	-12%	-6%
COc1ccc(NC(=O)CSc2nc3c(c(-c4cccs4)c2C#N)CN(C)CC3)cc1OC	-14%	1%

compound	VACV mCherry inh	Vaccinia Venus
O=C(c1ccco1)N1CCN(c2cc(N3CCOCC3)c(F)cc2[N+](=O)[O-])CC1	-7%	-21%
O=C(NC1CCCCC1)C1CC(=O)N(CCc2ccc(F)cc2)C1 (stereo not given)	-8%	-1%
COc1ccccc1/C=C/C=N/NC(=O)c1cccs1	i	-14%
CCCN1CNc2c(c(=O)[nH]c(=S)n2CCc2ccccc2Cl)C1	i	-13%
c1ccc(-c2ccccc2OCCOCCN2CCNCC2)cc1	-11%	7%
O=C(NCc1ccccc1)C1=C[C@H](c2ccc3c(c2)OCO3)C[C@H](OCc2ccc(CO)cc2)O1	-8%	-18%
N#Cc1c2nc3ccccc3nc2n2cc(NC(=O)c3ccc(F)cc3)ccc12	7%	124%[activator]
CCOc1cc(CNS(=O)(=O)c2ccc3c(c2)C(C)(C)C(=O)N3)cc(OCC)c1OCC	-4%	-7%
CS(=O)(=O)Oc1ccccc1/C=C1/N=C(c2ccc(F)cc2)OC1=O	-9%	-3%
CNC(=O)CSc1nnc(-c2cc(C)cc(C)c2)o1	?	?
CC(=O)c1ccc(NC(=O)C(C)OC(=O)c2ccc(Br)o2)cc1 (stereo not given)	-18%	-25%
O=C(/C=C/c1ccccc1)Oc1coc(CSc2ncccn2)cc1=O	-17%	17%
COc1ccccc1C(=O)NCCCNC(=O)c1ccccn1	i	-8%
CCCCC/C=C\C[C@H](O)/C=C/c1cccc(C[C@H](O)CCCCO)n1	-21%	-15%
COc1ccc(OC)c(C(c2nnnn2Cc2ccccc2)N2CCN(C3CCCCC3)CC2)c1 (stereo not given)	.	-19%
CCc1nc(NCC2CCCO2)c2oc3ccccc3c2n1 (stereo not given)	.	-25%
Cc1cc(C)c(C#N)c(SCC(O)CS(=O)(=O)Cc2ccccc2)n1 (stereo not given)	-14%	-19%
Cc1ccc(C)c(N2CCN(C(=O)CCc3nc(-c4ccccc4Cl)no3)CC2)c1	i	0%
COCCNS(=O)(=O)c1cccn1-c1ncc(C(F)(F)F)cc1Cl	-23%	-14%
O=C(Nc1nc(-c2ccc(Br)cc2)ns1)c1ccccc1F	-16%	-27%

Below each SMILES – VACV mCherry inh	Vaccinia Venus
> COc1cccc(CC(=O)OCC(=O)Nc2nnc(-c3ccccc3)o2)c1
 : i	-16%
> Cc1noc(N)c1C1(O)C(=O)Nc2c(Cl)cc(Cl)cc21 (stereo not given)
 : ?	-19%
> CCOc1ccccc1NC(=O)CN1CCCCCC1
 : -5%	-10%
> CC(C)CC(=O)c1c[nH]c(C(=O)NCc2cccs2)c1
 : -4%	-4%
> O=S(=O)(Nc1nc2ccccc2nc1-[n+]1ccccc1)c1ccc(Cl)cc1
 : -15%	-1%
> C[N+](C)(C)CCc1ccc(O)cc1
 : -1%	-4%
> Nc1nc(SCC(=O)c2cccc([N+](=O)[O-])c2)n[nH]1
 : -15%	-18%
> O=C1NC(=NCc2ccccc2)NC1(c1ccccc1)c1ccccc1
 : -13%	5%
> CS(=O)(=O)N(CC(=O)Nc1ccccc1C(=O)NCc1ccco1)c1ccccc1F
 : -11%	-10%
> COC(=O)c1ccc(C(=O)NC2CCCc3c2cnn3-c2ccc(C)c(C)c2)cc1 (stereo not given)
 : ?	?
> Cc1ccc([N+](=O)[O-])cc1NC(=O)CCc1ccccc1
 : 6%	5%
> COC(=O)c1nc(C(=O)OC)c(C(=O)OC)nc1C(=O)OC
 : .	-19%
> CCc1nc(SCc2ccc(C(=O)OC)o2)n[nH]1
 : i	5%
> CCCCN(C)C(=O)C1CCC(Cn2c(=O)[nH]c3ccsc3c2=O)CC1 (stereo not given)
 : -15%	1%
> CC1(C)Oc2ccc3ccc(=O)oc3c2/C(=C/Nc2ccccn2)C1=O
 : -9%	-10%

Below each SMILES – VACV mCherry inh	Vaccinia Venus
> O=S(=O)(NCCc1c[nH]c2ccccc12)c1ccccc1
 : ?	-27%
> CCCCNC(=O)C1(C)CCN1C(=O)c1cc(C)n(C(C)(C)C)n1 (stereo not given)
 : 7%	0%
> S=C(NCc1ccco1)Nc1ccc(Cl)cc1
 : -20%	-8%
> Cc1ccc(Cn2c(C3CCCN3c3nc(-c4cc(Cl)c(N)c(Cl)c4)cs3)nc3cc(C(=O)NCCCO)ccc32)cc1 (stereo not given)
 : ?	?
> CC1(C)OC(=O)C(=NNc2ccc(O)cc2)C(=O)O1
 : -19%	?
> O=C(Nc1ccc(CCC(=O)N2CCCC2)cc1)c1ncn[nH]1
 : i	-10%
> O=C(NN=Cc1ccc(O)c(O)c1)c1ccccc1
 : -7%	-6%
> COc1ccc2cc(C3CC(c4ccco4)=NN3S(=O)(=O)c3ccccc3)c(Cl)nc2c1 (stereo not given)
 : i	-13%
> Cc1cnc(NC(=O)CSc2nnc(-c3ccccc3)n2Cc2ccccc2)s1
 : -13%	-6%
> COc1cc(C#Cc2c(-c3cncn3C)n(C)c3ccc(-c4ccc5[nH]ccc5c4)cc23)cc(OC)c1
 : -24%	-24%
> Cc1ccc(S(=O)(=O)NCc2ccc(N3CCN(C(=O)OC(C)(C)C)CC3)cc2)cc1
 : -12%	-5%
> O=S(=O)(NCc1nnc2ccccn12)c1ccc(F)cc1
 : i	-8%
> COc1ccc(-n2c(O)cnc2Nc2nc(C)cc(C)n2)cc1OC
 : -15%	-5%

Six successive entries from above, for reference:
Below each SMILES – VACV mCherry inh	Vaccinia Venus
> COc1ccc2cc(C3CC(c4ccco4)=NN3S(=O)(=O)c3ccccc3)c(Cl)nc2c1 (stereo not given)
 : i	-13%
> Cc1cnc(NC(=O)CSc2nnc(-c3ccccc3)n2Cc2ccccc2)s1
 : -13%	-6%
> COc1cc(C#Cc2c(-c3cncn3C)n(C)c3ccc(-c4ccc5[nH]ccc5c4)cc23)cc(OC)c1
 : -24%	-24%
> Cc1ccc(S(=O)(=O)NCc2ccc(N3CCN(C(=O)OC(C)(C)C)CC3)cc2)cc1
 : -12%	-5%
> O=S(=O)(NCc1nnc2ccccn12)c1ccc(F)cc1
 : i	-8%
> COc1ccc(-n2c(O)cnc2Nc2nc(C)cc(C)n2)cc1OC
 : -15%	-5%

Of the compounds above, 5 have a cyano group.
Below each SMILES – VACV mCherry inh	Vaccinia Venus
> CCC(=O)Nc1c(C#N)c2nc3ccccc3nc2n1-c1ccc(C)cc1
 : -6%	-9%
> Cc1cc(C)nc(N(C#N)C(C)C(=O)N(C)C)n1 (stereo not given)
 : i	-14%
> COc1ccc(NC(=O)CSc2nc3c(c(-c4cccs4)c2C#N)CN(C)CC3)cc1OC
 : -14%	1%
> N#Cc1c2nc3ccccc3nc2n2cc(NC(=O)c3ccc(F)cc3)ccc12
 : 7%	124%[activator]
> Cc1cc(C)c(C#N)c(SCC(O)CS(=O)(=O)Cc2ccccc2)n1 (stereo not given)
 : -14%	-19%
